CtBP-E1A inh = inhibitors of CtBP/E1A interaction | AlphaScreen GST-E1A/His-CtBP binding, 1536-well; hits give low values; control for the full effect not named in the record | actives 0.49% (n = 340,000) | activity change, % (test concentration not listed) | AID 651724; in the data active means activity change below about -65%; inconclusive means about -30% to -65%; inactive means above about -30%; note: % is set by controls: 0 for no effect and ±100 for the full control effect; compound concentration not given in the record
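AlphaScreen with 125 nM GST-E1A and 125 nM His-CtBP (5X stocks) in Tris pH 8.0, 300 mM NaCl, BSA, Tween 20, TCEP. Compounds preincubated 2 h at 37 deg C, then glutathione donor/nickel acceptor beads added for 1 h at 37 deg C in dark.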
D2 agonist = agonists of human D2 dopamine receptor (beta-arrestin); P14416; DiscoveRx PathHunter D2 beta-arrestin, luminescence, 90 min; 100% = 57 uM dopamine signal; activation, % (concentration not given with the values); actives 0.084% (n = 360,000); in the data active = activation above about 40%; inconclusive = about 15% to 40%; inactive = below about 15%; note: compound concentration not given in the record; the text of the record calls up to 30% inactive
Target sequence (P14416 whole entry, looked up): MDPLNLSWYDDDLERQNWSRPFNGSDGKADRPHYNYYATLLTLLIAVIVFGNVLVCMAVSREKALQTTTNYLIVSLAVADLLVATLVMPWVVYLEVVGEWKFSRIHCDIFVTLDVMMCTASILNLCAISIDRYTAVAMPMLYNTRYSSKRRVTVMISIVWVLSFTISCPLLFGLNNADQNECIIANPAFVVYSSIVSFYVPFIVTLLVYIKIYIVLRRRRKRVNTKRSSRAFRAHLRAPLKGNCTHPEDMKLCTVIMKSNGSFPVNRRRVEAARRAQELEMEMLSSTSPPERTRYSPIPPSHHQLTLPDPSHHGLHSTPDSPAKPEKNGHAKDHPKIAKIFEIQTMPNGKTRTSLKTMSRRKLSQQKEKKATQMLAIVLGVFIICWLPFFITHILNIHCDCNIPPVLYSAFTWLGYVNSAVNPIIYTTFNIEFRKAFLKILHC
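Agonist mode: compounds alone added to overnight-plated D2 PathHunter cells for 90 min at 37 C, with 57 uM final dopamine (EC100) defining full response. Beta-arrestin recruitment detected by chemiluminescent reagent, read after 1 h at ambient temperature.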
PINK1 modulator = changes PINK1 expression. PINK1 immunofluorescence, high-content cytometry, 24 h. Potency, µM (series often up to 76.6 µM), inactives show at the top dose activation (PINK1 increase), usual class: activators. actives 0.2% (n = 410,000); active = well fitted activation curve with a large enough effect; inconclusive = small, poorly fitted or top-dose-only effect; inactive = flat fitted curve, though single readings scatter; cell line not stated here;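 note: potency is the fitted concentration of half-maximal effect; % of control where 0% means no effect; nearly all actives have a fitted effect of over 65% in size; a mitochondrial uncoupler was the plate control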
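Measures PINK1 amount and localization on or inside mitochondria by immunofluorescence. Stable cells get compounds at 5 concentrations for 24 hours before fixation and staining; CCCP controls included.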
TRPML1 agonist = activates the human TRPML1 channel; Q9GZU1; TRPML1-expressing cells, Ca2+ dye fluorescence, FDSS; host cell line not named in the record; reference of the full effect not given here; activation, % (no concentration beside the values); actives 0.12% (n = 410,000); AID 624414; in the data active = activation above about 50%; inconclusive = about 30% to 50%; inactive = below about 30%; note: 0% is about no effect; the text of the record puts the active cut at 80%
Target sequence (Q9GZU1 whole entry, looked up): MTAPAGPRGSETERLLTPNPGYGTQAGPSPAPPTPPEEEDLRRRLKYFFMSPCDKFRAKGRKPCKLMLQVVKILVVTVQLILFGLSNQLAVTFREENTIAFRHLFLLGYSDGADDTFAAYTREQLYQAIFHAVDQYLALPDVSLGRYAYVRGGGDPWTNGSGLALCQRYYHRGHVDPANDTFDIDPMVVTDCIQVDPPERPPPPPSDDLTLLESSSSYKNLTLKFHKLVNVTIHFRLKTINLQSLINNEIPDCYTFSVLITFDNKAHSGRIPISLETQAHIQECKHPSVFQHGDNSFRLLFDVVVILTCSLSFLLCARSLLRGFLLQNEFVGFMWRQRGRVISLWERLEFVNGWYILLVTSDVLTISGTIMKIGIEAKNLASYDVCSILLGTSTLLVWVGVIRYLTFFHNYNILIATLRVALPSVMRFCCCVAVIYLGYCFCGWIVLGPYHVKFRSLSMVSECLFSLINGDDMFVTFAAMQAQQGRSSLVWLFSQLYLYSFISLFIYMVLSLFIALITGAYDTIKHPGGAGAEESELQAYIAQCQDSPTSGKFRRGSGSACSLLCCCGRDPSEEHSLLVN
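Cells: TRPML1-DL, 1X Tet inducer, ~16 h at 37 degrees C/5% CO2. Dye: ABD Ca8 no-wash + quencher, 45-90 min RT. Read: 10 s baseline, compound add, 110 s agonist phase; 54-4 EC80 (4uM final), 110 s antagonist phase.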
Six1-Eya2 blk = blocks human Six1 binding to Eya2 | Q15475+O00167 | AlphaScreen GST-Six1/His-Eya2 binding, biochemical; hits give low values; control for the full effect not named in the record | activity change, % (test concentration not listed) | actives 0.56% (n = 360,000) | AID 651725; in the data active = activity change below about -65%; inconclusive = about -30% to -65%; inactive = above about -30%; note: % is set by controls: 0 for no effect and ±100 for the full control effect; compound concentration not given in the record
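Six1/Eya2 binding was read as AlphaScreen signal after compounds were pinned into GST-Six1 plus His-tagged Eya2 (5X stock 250/500 nM) in pH 8.0 Tris/NaCl/TCEP buffer, beads added, then incubated 1 h, 37 C, dark.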
TRPML1 blocker = human mucolipin-1 channel inhibition; activity change, negative = inhibition, % (no concentration beside the values); Q9GZU1; actives 0.02% (n = 390,000); TRPML1-inducible cells, Ca2+ dye fluorescence, FDSS; hits give low values; inhibition of EC80 agonist-evoked calcium signal; in the data active means activity change below about -50%; inconclusive means about -30% to -50%; inactive means above about -30%;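 note: stimulus is agonist 54-4 at its EC80 concentration; % is set by controls: 0 for no effect and ±100 for the full control effect; compound concentration not given in the record; the text of the record puts the active cut at -80%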
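Calcium fluorescence in TRPML1-DL cells induced overnight with Tet: a 110 s read after compound pin addition, then a 110 s antagonist read after challenge with 54-4 at 4 uM final (EC80).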
* hit, by the source's call; ? = inconclusive; . = not tested or not shown; [ ] = dose if it differs, or a comment.

SMILES	CtBP-E1A inh	D2 agonist	PINK1 modulator	TRPML1 agonist	Six1-Eya2 blk	TRPML1 blocker
O=C(Nc1ccc2c(c1)OCCO2)C1CC(c2ccccc2Cl)=NO1 (configuration not stated)	3	3.5	0.0%	1.2	-2	-27
CC1CCCCN1S(=O)(=O)c1ccc(S(=O)(=O)N(CC(=O)Nc2ccccc2)Cc2cccs2)cc1 (configuration not stated)	4	-3.1	1.7%	0.2	-6	6
CCNc1nc(NC(N)=S)nc(NC(C)(C)C)n1	-6	-3.7	-0.8%	0.4	6	-6
CC(=O)Nc1ccc(S(=O)(=O)N2CCC(n3c(C)nc4cccnc43)CC2)cc1	.	.	1.3%	-0.4	.	-2
Cc1occc1C(=O)Nc1ccc(Br)cc1F	-4	-1.9	2.8%	2.8	-4	-1
O=C(COC(=O)/C=C/c1cn(-c2ccccc2)nc1-c1cccnc1)Nc1ccc(Cl)cc1Cl	-4	-1.0	?	-0.1	3	-6
CC(C)C(=O)Nc1cccc(C(=O)Nc2ccc(S(=O)(=O)N3CCOCC3)cc2)c1	6	-2.2	2.7%	-0.8	3	-1
Cc1ccc(NC(=O)c2ccnc(C(C)(C)C)c2)cc1	8	-1.6	0.4%	0.1	7	-1
CCc1nc(N)c(C#N)c(-c2ccc(OC)c(OC)c2)c1C	5	5.9	-0.7%	0.3	0	19
COc1cc(C(=O)NCCC(=O)NC(C)CCc2ccccc2)cc(OC)c1OC (configuration not stated)	1	-3.7	-1.6%	-1.1	-7	14
CC(C)(C)n1ncc2c(=O)n(Cc3ccc(Cl)cc3Cl)cnc21	-1	-0.2	1.1%	-0.1	14	4
COC(=O)CSc1nnc([C@H](Cc2ccccc2)NC(=O)OC(C)(C)C)o1	2	-2.3	0.1%	1.7	0	-4
CC(=O)Nc1ccccc1OCc1cnc(Cl)s1	6	3.6	0.5%	-0.6	6	0
COc1ccc(C(=O)NCc2nnc(SCC(=O)Nc3nc4ccc(C)cc4s3)o2)cc1OC	-1	1.2	6.2%	0.0	2	9
CN1C(=O)CSC1=Nc1cccc(Cl)c1	.	-0.3	0.8%	.	3	.
COc1ccc(C=O)cc1Cn1c(=O)n(CCC(=O)NCc2ccco2)c(=O)c2sccc21	2	-0.4	15%	-0.9	8	8
COCCCNS(=O)(=O)c1ccc(S(=O)(=O)N2CCCC2)cc1	2	-6.7	-1.0%	-0.3	5	39
Cc1ccc(CNC(=O)C2CCC(CNS(=O)(=O)c3cccc4cccnc34)CC2)cc1 (configuration not stated)	2	-1.0	0.3%	0.5	-1	5
COc1cc2ccccc2cc1C(=O)Nc1ccc2oc(-c3ccc(F)cc3)nc2c1	.	.	1.3%	-0.5	.	-5
Cc1ccc(S(=O)(=O)NCCn2cnc([N+](=O)[O-])n2)cc1	3	-5.7	0.8%	0.9	7	6
CC(C)C(=O)N1CCC(n2nccc2NC(=O)CCOc2ccccc2)CC1	4	1.1	-0.8%	-0.6	5	20
COc1ccc(CCn2c(-c3cccc([N+](=O)[O-])c3)nc3nc4ccccc4nc32)cc1OC	7	-1.4	6.1%	-0.3	8	4
COc1ccc(CC(=O)Nc2ccc(OC(C)=O)cc2C(=O)O)cc1	.	-3.4	-1.1%	1.0	1	13
Cc1ccc2c(c1)N(C(=O)CCC(=O)NCc1ccccc1)CC(C)O2 (configuration not stated)	-19	-0.9	-2.6%	2.7	4	29

6 compounds out of the list, arranged by formula weight, high to low.
SMILES	CtBP-E1A inh	D2 agonist	PINK1 modulator	TRPML1 agonist	Six1-Eya2 blk	TRPML1 blocker
COc1ccc(C(=O)NCc2nnc(SCC(=O)Nc3nc4ccc(C)cc4s3)o2)cc1OC	-1	1.2	6.2%	0.0	2	9
COc1ccc(C=O)cc1Cn1c(=O)n(CCC(=O)NCc2ccco2)c(=O)c2sccc21	2	-0.4	15%	-0.9	8	8
COc1cc2ccccc2cc1C(=O)Nc1ccc2oc(-c3ccc(F)cc3)nc2c1	.	.	1.3%	-0.5	.	-5
COCCCNS(=O)(=O)c1ccc(S(=O)(=O)N2CCCC2)cc1	2	-6.7	-1.0%	-0.3	5	39
Cc1ccc2c(c1)N(C(=O)CCC(=O)NCc1ccccc1)CC(C)O2 (configuration not stated)	-19	-0.9	-2.6%	2.7	4	29
CC(=O)Nc1ccccc1OCc1cnc(Cl)s1	6	3.6	0.5%	-0.6	6	0

More compounds.
SMILES	CtBP-E1A inh	D2 agonist	PINK1 modulator	TRPML1 agonist	Six1-Eya2 blk	TRPML1 blocker
CN1CCN(S(=O)(=O)c2ccc(N3CCN(c4ccccc4O)CC3)c([N+](=O)[O-])c2)CC1	?	2.9	0.1%	3.3	-20	5
CCOc1cc(N2CCOCC2)c(OCC)cc1NS(=O)(=O)c1ccc(Cl)s1	-14	3.4	4.8%	0.0	-7	-12
CCCCC(=O)Nc1ccc(NC(=S)NC(=O)c2ccco2)cc1OC	-1	-8.5	0.1%	0.8	-11	25
Cc1nn(-c2nc3ccccc3[nH]2)c(N)c1-c1ccc(Cl)cc1	0	0.5	8.9%	4.8	-12	2
COc1ccc(C(=O)CN2C(=O)NC3(CCCc4ccccc43)C2=O)cc1 (configuration not stated)	8	-4.5	-1.0%	0.3	0	-2
COc1ccccc1Nc1nc(-c2sc(NC(=O)C(C)(C)C)nc2C)cs1	-13	-8.6	5.2%	0.4	-13	0
O=c1[nH]c(=O)n(Cc2ccccc2)c2nc(-c3cccs3)n(CCO)c12	-1	-4.6	7.1%	0.8	0	32
CCCCOC(=O)c1ccc(NC(=O)c2cnc3n(c2=O)CCS3)cc1	8	0.5	1.6%	0.4	7	-7
CCN(CC)C1CCN(C(=O)c2ccc3nc(Cc4ccc(OC)cc4)oc3c2)C1 (configuration not stated)	.	-1.6	-0.9%	0.3	-4	-17
COc1ccccc1C1CCN(c2cc(O)ccc2[N+](=O)[O-])CC1	-24	-4.6	?	1.8	-18	13
Cn1c(CNC(=O)c2ccco2)nnc1SCC(=O)Nc1c(F)cc(F)cc1Br	-12	-5.5	1.0%	-0.7	1	0
CN(c1ccccc1)S(=O)(=O)c1ccc(-c2ccccc2)cc1	29	1.4	5.9%	2.2	17	89
Cc1nn2c(C(F)(F)F)cc(-c3ccc(Cl)cc3)nc2c1C(=O)N1CCOCC1	-5	1.7	-3.7%	-0.6	10	1
COC(=O)[C@@H]1C[C@@]2(O)[C@H](O)[C@H](O)[C@H](O)C[C@H]2N1CC1CC1	-23	-5.3	-1.0%	0.9	0	-11
O=C(CCNC(=O)c1ccco1)Nc1ccc(N2CCOCC2)cc1	11	-1.8	1.6%	0.0	6	14
O=C(O)c1ccc(NS(=O)(=O)c2cccc(C(=O)Nc3ccc(Br)cc3)c2)cc1	-22	0.3	0.4%	-0.1	?	10
O=C1c2ccccc2S(=O)(=O)N1Cc1c(F)cccc1Cl	6	-3.9	0.1%	0.7	3	-6
Cc1occc1C(=O)Nc1ccccc1C(=O)O	-6	-0.9	-0.2%	0.8	-1	-11
COCCN(Cc1cccs1)S(=O)(=O)c1ccc(-c2ccc(=O)[nH]n2)s1	-7	-1.9	-0.5%	0.2	-3	18
CC(=O)Nc1nc(Cn2nnc(-c3ccc4c(c3)OCO4)n2)nc(N(C)C)n1	18	-2.1	0.1%	-0.2	-17	-7
Cc1ccc2[nH]c(=O)c(CN(CCCN(C)C)C(=O)Nc3ccc(F)cc3)cc2c1	-6	-4.9	-0.7%	-0.5	4	-11
CN(C(=O)CSc1ncnc2ccccc12)C1CCS(=O)(=O)C1 (configuration not stated)	-9	-3.9	-1.4%	-0.1	4	-4
c1ccc(CCc2nc(-c3ccncc3)no2)cc1	3	0.9	-0.8%	-0.4	13	35
Cc1nn(C(C)C(=O)NCC2CCCO2)c(=O)c2c1sc1ccccc12 (configuration not stated)	-3	-6.1	-0.8%	-1.1	0	-14
COC(=O)C1CCN(S(=O)(=O)CCNC(=O)c2ccc3c(c2)OCO3)CC1	2	-1.4	3.4%	-0.8	-6	4
CN(Cc1c(F)cccc1Cl)c1ccc(S(=O)(=O)N2CCOCC2)cn1	-1	-0.6	-3.3%[38.3 µM]	1.8	4	31
CN1OC[C@@H]2CN(C(=O)CCc3ccccc3)[C@H](c3cccc(-c4ccc(C#N)cc4)c3)C[C@@H]21	-6	-0.4	-0.4%	-1.0	-3	-1
Cc1ccc(-n2c([S-])c(C(=O)Nc3ccc(OC(F)F)cc3)[n+]3ccc(C(=O)NCCO)cc23)cc1C	-9	2.6	?	-0.5	-4	5
Cc1nc2ncccn2c1-c1csc(Nc2ccccc2)n1	7	-5.0	5.4%	2.1	-80*	9
Nc1c(C(=O)NCc2ccccc2)c2nc3ccccc3nc2n1CCCN1CCOCC1	.	-1.1	-2.1%	0.4	-30	9
CCOc1c2ccc(C(=O)NCc3ccc(C)cc3)cc2nn1CCOC	41	-4.3	-1.0%	1.1	36	-16
COc1c2c(c3c(c1OC)c(=O)c1ccccc1n3C)OCO2	0	10	-3.5%	0.2	-9	-3
COc1cccc(/C=N/NC(=S)Nc2cccc(C(=O)O)c2)c1	-8	-4.0	0.0%	-0.1	-5	-4
C[C@H]1CN([C@@H](C)CO)C(=O)c2cccc(NC(=O)c3ccncc3)c2O[C@H]1CN(C)C(=O)Nc1ccccc1	6	-3.5	0.0%	0.1	-2	-18
Cc1sc(NC(=O)CSc2nnnn2C2CCCCC2)c(C#N)c1C	5	-9.8	0.1%	-0.2	-4	5
O=C(NCc1ccco1)c1ccc2c(c1)N(Cc1ccc(F)cc1)C(=O)c1ccccc1S2(=O)=O	.	.	2.9%	0.8	.	7
COc1nc(-c2ccccc2)ccc1-c1noc(C)n1	12	1.0	-4.3%[38.3 µM]	-0.6	7	-5
Cc1ccc2c(c1)C(=O)OC(C(=O)Nc1ncc(Cc3ccccc3Cl)s1)C2 (configuration not stated)	.	.	0.1%	2.3	.	-15
COc1ccc(CC(=O)N/N=C(\C)CC(=O)Nc2ccc3c(c2)OCCO3)cc1	-6	-3.7	4.4%	-1.6	-2	-9
Cc1ccccc1NC(=O)c1cccc(S(C)(=O)=O)c1	2	-1.8	0.9%	-0.7	8	-3
CCC(C)c1ccccc1NS(=O)(=O)c1cnn(CC)c1 (configuration not stated)	2	3.0	4.4%	0.3	0	-1
CC1(C(=O)NS(=O)(=O)c2ccc(Cl)cc2)CCN1C(=O)c1cccc(F)c1 (configuration not stated)	1	-4.9	-0.1%	-0.7	5	.
COC(=O)c1ccc(CSc2nc3ccccc3c(=O)n2CC(C)C)o1	0	-2.3	-0.1%	2.3	7	-7
CC(C)c1ccc(NC(=O)N2CCCC2C(=O)Nc2ccc(-n3cnnn3)cc2)cc1 (configuration not stated)	-7	3.6	2.1%	0.0	-1	16
COc1ccc(NC(=O)c2sc3nc4c(cc3c2N)CCCCCC4)cc1Cl	.	.	11%	-0.8	.	2
CN(Cc1cccc2cnccc12)C(=O)c1cc(COc2ccc(F)cc2F)on1	-6	-1.5	0.8%	0.2	-9	-3
CCn1c(NC(=O)Nc2ccccc2OC)nc2ccccc21	4	-8.1	1.1%	-1.4	-1	-29
O=C1Nc2ccccc2Nc2ccc([N+](=O)[O-])cc21	-6	0.4	-0.1%	0.0	-3	39

Screening data (PubChem)

The order is random; about 1% have a hit in one of these screens.
